# eIF4H FP inh: human eIF4H binding inhibitors, primary screen, translation initiation inhibitor project, biochemical, uHTS, fluorescence polarization | eIF4H fluorescence polarization binding assay | inhibition, % at 35 µM | 0.94% of 290,000 active;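 active means 50% or more with normal probe brightness, or confirmed in later tests; inconclusive means above 50% with abnormal brightness, or retests that disagree; inactive means below 50% or failed in later tests; about a fifth of its hits are not listed in these tables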;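 further: calls also rest on retests at 20 µM and on dose response follow-up; 0% = protein and probe with vehicle and 100% = probe without protein; strong numbers were not always called active; many hits fall short of the cut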
# Rce1 inhib: yeast Rce1p protease inhibitors, primary screen, biochemical, fluorescence, cell-free homogeneous; AID 2563, 2010; CAAX prenyl protease 2 (Saccharomyces cerevisiae (strain ATCC 204508 / S288c)), Q03530; calls only; yeast membranes, quenched prenylated peptide cleavage fluorescence; 0.27% of 290,000 active;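 active means fall in fluorescence gain of 50% or more versus controls, with final raw signal at or below 3038400; inconclusive means same 50% fall but final raw signal above 3038400; inactive means fall in fluorescence gain under 50%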;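 further: plate controls were neutral control wells for no effect and wells lacking membranes for full effect; tested at 10 µM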
# MT1-MMP act inh: blockers of MT1-MMP proenzyme processing, primary screen, HT1080 RFP-PRO-GFP cells, GFP/RFP fluorescence | Matrix metalloproteinase-14 (Homo sapiens), P50281 | GFP/RFP ratio fluorescence, overnight; percent of plate control window, DMSO zero | GFP/RFP ratio change, % at 20 µM | 0.061% of 360,000 active | AID 651647, 2012;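 active means GFP/RFP ratio change of at least 30% with cell ATP level not reduced by more than half and red fluorescence within 50% of control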; further: strong numbers were not always called active
#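 Assay system: HT1080 RFP-PRO-GFP cells. Benchmarks: DMSO vehicle wells and RFP-L50D-GFP reporter cell wells. Times: overnight cell settling, then overnight compound exposure, 37 °C, 5% CO2. Compound: 20 µM single dose, 1% DMSO. Read-out basis: GFP/RFP fluorescence ratio.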
# UUG fidelity: modulators of yeast start codon fidelity, primary screen, whole organism, S. cerevisiae, single point, plate reader; AID 602363, 2012; activity score, % at 18.7 µM; S. cerevisiae UUG-firefly luciferase reporter, luminescence/redox ratio; 0.13% of 350,000 active;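 active means replicate mean at a twofold rise or more, about +100% in these data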;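 further: firefly luciferase made from a UUG start codon reports start codon fidelity; reporter light over untreated wells divided by growth signal over untreated wells; some hits fall short of that in this replicate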
# PABP FP inh: PABP poly(A) RNA binding inhibitors, primary screen, biochemical, fluorescence polarization, uHTS; Polyadenylate-binding protein 1 (Homo sapiens), P11940; inhibition, % at 35 µM; 1% of 290,000 active; AID 2014, 2009;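 active means 50% or more with normal probe brightness, or confirmed in later tests; inconclusive means above 50% with abnormal brightness, or retests that disagree; inactive means below 50% or failed in later tests; about a fifth of its hits are not listed in these tables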;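 further: calls also rest on retests at 20 µM and on dose response follow-up; controls were probe without protein and protein plus probe with vehicle; some compounds called inactive have numbers as strong as hits; many hits fall short of the cut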
# Target sequence (P11940 whole entry, looked up): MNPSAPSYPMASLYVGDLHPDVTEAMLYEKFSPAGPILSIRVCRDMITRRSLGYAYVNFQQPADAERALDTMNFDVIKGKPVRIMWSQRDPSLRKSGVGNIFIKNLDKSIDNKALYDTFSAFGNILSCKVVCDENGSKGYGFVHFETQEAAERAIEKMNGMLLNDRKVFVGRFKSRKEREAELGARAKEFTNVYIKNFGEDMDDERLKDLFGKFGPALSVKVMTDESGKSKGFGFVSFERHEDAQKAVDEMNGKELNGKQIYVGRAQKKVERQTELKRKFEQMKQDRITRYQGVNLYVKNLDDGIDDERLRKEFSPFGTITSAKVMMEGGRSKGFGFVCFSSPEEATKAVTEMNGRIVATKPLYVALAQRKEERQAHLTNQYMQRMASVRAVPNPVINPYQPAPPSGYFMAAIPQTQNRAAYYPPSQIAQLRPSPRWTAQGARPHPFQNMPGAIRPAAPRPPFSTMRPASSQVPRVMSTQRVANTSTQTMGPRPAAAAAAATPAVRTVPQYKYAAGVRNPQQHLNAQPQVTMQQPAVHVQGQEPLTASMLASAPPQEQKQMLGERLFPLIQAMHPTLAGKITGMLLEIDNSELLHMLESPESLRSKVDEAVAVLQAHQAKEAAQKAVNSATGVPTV
# HIV Env fusion: inhibitors of HIV-1 Env-driven cell-cell fusion, primary screen, HeLa-JRFL effector, CEM21 target cells, luciferase | inhibition, % at 12.3 µM | 1.1% of 360,000 active | AID 651610, 2012;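 active means mean replicate inhibition score of at least 50 and every replicate individually at or above 50; inconclusive means only one of the two criteria met; inactive means mean below 50 and not all replicates reaching 50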;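 further: 0% = plate neutral controls and 100% = maraviroc near 300 nM; one replicate is shown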
# CSC inhib: cancer stem cell viability inhibitors, primary screen, luminescence; cancer stem cell-like cells viability; inhibition, % at 7.5 µM; 1.1% of 300,000 active;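 active means mean at 75% or more and at least half the replicates too; inconclusive means mean and replicates disagree; tested in HMLE shEcad cells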;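 further: 0% = median of negative and 100% = median of positive control wells; the first replicate is given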
# eIF4H FP inh retest: recorded beside eIF4H FP inh, whose call it bears; inhibition, %; compound at 20 µM; confirmation average;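 mean of two retest wells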
# PABP FP inh retest: further read-out of PABP FP inh, marked with its call; inhibition, %; compound at 20 µM; confirmation repeats;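 mean of two retest wells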
# MT1-MMP act inh RFP: second read-out of MT1-MMP act inh, no call of its own (marks repeat the call); RFP signal change, %; measured here: RFP expression control read;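 0 = vehicle wells; hits needed this value within 50% of zero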
# * = called active by the depositor; i = inactive; ? = inconclusive; / = no result given; + = active, no number; & = joins results of further samples.
SMILES,eIF4H FP inh,Rce1 inhib,MT1-MMP act inh,MT1-MMP act inh RFP,UUG fidelity,PABP FP inh,HIV Env fusion,CSC inhib,others
Cc1cccc(C)c1NC(=O)C1CSC2(C)CCC(=O)N12 (stereo unspecified),/,i,1,-1,/,/,7,/,
N#CC(C#N)=CC1=C2OC(c3ccccc3)=CC(c3ccccc3)=C2CCC1,-2,i,-3,2,-21,-1,/,-3,
CC(=O)NNc1nc(-c2ccc(C)cc2)cs1,-15,i,3,1,/,6,12,16,
COc1ccc(S(=O)(=O)NNC(=O)c2cccs2)cc1,7,i,3,0,-24,-7,-14,-12,
Cc1cc(=O)oc2c(C)c(OC(C)C(=O)N3CC[C@@]4(O)CCCC[C@H]4C3)ccc12 (stereo partly specified),-10,i,0,-2,-14,8,/,-5,
COc1c(F)c(F)c(-c2csc(N)n2)c(F)c1F,/,i,1,6,-5,/,-168,-7,
O=C1[C@H](Cc2ccccc2)NCCCC[C@H](c2ccc(Cl)cc2)N1Cc1ccc(Cl)cc1,/,/,-14,-14,-12,/,66*,/,
CC(O)CNCc1ccc(Cl)cc1Cl (stereo unspecified),-5,i,1,1,/,-4,9,-6,
O=C(Cn1c2ccccc2c(=O)c2ccccc21)Nc1ccccc1F,5,+,5,10,/,-1,37,-6,
C[C@H](NC(=O)C1CC(=O)N(c2ccc3c(c2)OCCO3)C1)C(=O)NCc1ccco1 (stereo partly specified),6,i,1,4,-6,14,3,4,
N#Cc1ccc(C(=O)NCC2CCCCC2)cc1,-7,i,2,2,-15,-5,-1,-14,
CCOC(=O)n1c(=O)n(Cc2ccccc2C)c2ccccc21,2,i,1,-2,/,68,12,8,eIF4H FP inh retest=-5;PABP FP inh retest=2
CCc1ccc(OCC(=O)N2CCN=C2c2ccccc2)cc1,6,i,11,-3,-3,-15,/,-16,
COC(=O)c1c(N)sc(C(=O)NCCc2ccccc2)c1C,0,i,2,-3,-85,12,44,25,
COc1ccc(CNC(=O)C(=O)NCCC2CCCCN2S(=O)(=O)c2ccc(C)cc2)cc1 (stereo unspecified),/,i,-10,-16,-15,/,/,-14,
CCc1nc2ccccc2c(C(=O)OCC(=O)N(C)Cc2ccccc2)c1C,/,/,24,-10,-2,/,/,-9,
O=C1c2ccccc2NC2(CCCCC2)N1c1ccc(O)cc1,-11,i,1,2,-41,-6,/,1,
O=c1cc(O)nc(-c2ccc(Cl)cc2)s1,-4,i,5,8,-24,-8,9,-14,
C[C@@H]1CN([C@@H](C)CO)C(=O)CCCn2nncc2CO[C@@H]1CN(C)S(=O)(=O)c1cccs1,/,/,-1,1,-5&-4,/,1,/,
COc1ccc(N2CC(C(=O)Nc3ccc(S(=O)(=O)Nc4nc(C)cc(C)n4)cc3)CC2=O)cc1 (stereo unspecified),0,i,-2,3,-8,-4,/,-7,
COc1ccc(OCCSc2nnc(CCNC(=O)c3ccc(Cl)c(Cl)c3)n2C)cc1,-6,i,11,-3,/,4,/,5,
Cc1nc(N2CCN(Cc3ccccc3)CC2)nc2c1C(=O)CC(c1ccco1)C2 (stereo unspecified),3,i,-7,-4,-18,1,-8,10,
CC(C)(C)NC(=O)C(c1ccc(O)cc1)N(Cc1ccco1)C(=O)CCC(=O)Nc1ccccn1 (stereo unspecified),1,i,-1,3,-15,0,-2,-14,
COc1cccc(CN(C)C(=O)c2cc(COc3ccc(-n4cncn4)cc3)on2)c1,-3,i,1,-22,-20,14,4,6,
COCCNC(=O)c1cc2c(=O)n3cccc(C)c3nc2n1C,-11,i,-5,-8,10,-2,4,34,
COc1ccc(C(=O)NCC(=O)NCc2cc(=O)n(C)c(=O)n2C)cc1,-20,i,1,1,-19,-2,0,-3,
COc1ccc(C(=O)N/C(=C/c2cccs2)c2nc3ccccc3[nH]2)cc1OC,2,i,-1,-1,/,-11,-15,-2,
Cc1[nH]c2ccc(C(=O)N3CCC(C(N)=O)CC3)cc2c1C,/,/,-4,-2,-3,/,-20,-12,
O=C1CN(C(=O)c2cc3ccccc3oc2=O)C(c2ccccc2)c2cc(F)ccc2N1 (stereo unspecified),5,i,-4,-2,3,9,-7,-11,
CC(C)NC(=O)C1(C)CCN1C(=O)c1ccccc1F (stereo unspecified),/,/,8,3,-9,/,-13,/,
Cc1ccc(C)c(NC(=O)C(CC(=O)O)C2CCCO2)c1 (stereo unspecified),-13,i,-3,2,-4,-4,9,2,
O=C(CCN1C(=O)S/C(=C/c2ccc(F)cc2)C1=O)Nc1ccc(O)c(C(=O)O)c1,-10,i,-2,-1,-21,12,-8,-23,
COc1ccc(N2CCN(CCNC(=O)C3CC(=O)N(C4CCCC4)C3)CC2)cc1 (stereo unspecified),-3,i,1,1,-10,-3,/,-10,
Cc1ccc(NC(=O)Cn2nnc(-c3ccccc3NC(=O)c3cccs3)n2)cc1,22,i,11,-11,-11,3,/,-10,
CCOc1cccc(N)c1,/,/,0,4,2,/,/,6,
CCOC(=O)c1c(C)nc2sc(C(=O)Nc3ccccc3)c(N)c2c1-c1ccc(OC)cc1,0,i,-9,-16,-14,4,/,-9,
COc1ccccc1CNS(=O)(=O)c1ccc2c(c1)N(C(C)=O)CCO2,-3,i,-2,-5,-8,8,-10,-5,
CCOC(=O)Cn1cc(/C=C(/C#N)C(=O)NC(C)C)c2ccccc21,-1,/,3,1,-17,10,10,-2,
CCOC(=O)C(NCCOC)(NC(C)=O)C(F)(F)F (stereo unspecified),-4,i,-3,3,1,0,7,0,
N#CNC1=NCN(CCc2ccccc2)CN1,-6,i,1,2,-19,3,/,0,
CCOC(=O)c1sc2nc3c(cc2c1N)COC(C(C)C)C3 (stereo unspecified),-8,i,-2,4,-26,-7,-434,-5,
COc1ccccc1CC(NC(C)=O)C(=O)NC1CCN(C(=O)Nc2ccccc2Cl)CC1 (stereo unspecified),-2,i,1,1,/,-5,1,1,
O=S(=O)(NCc1ccc(Cl)cc1)c1cnc[nH]1,-8,i,1,0,-9,-6,19,3,
CCN(CC(=O)NC(C)(C)C)C(=O)CN1c2cccc3cccc(c23)S1(=O)=O,44,i,-4,-2,/,35,8,2,
COc1cccc(/C=N/NC(=O)CC(C)O)c1OC/C=C/c1ccccc1 (stereo unspecified),3,i,-7,-7,20,-2,5,25,
O=C(CNC(=O)c1ccco1)NCC(=O)OCc1ccccc1Cl,8,i,0,7,-21,11,1,-35,
Cc1cc(C(=O)Nc2sc3c(c2C#N)CCC(C)C3)cs1 (stereo unspecified),-8,i,-6,2,-12,-7,-136,8,
ON(CCc1ccncc1)Cc1ccccc1,/,/,-8,6,-11,/,9,/,
O=c1nc2n(c3ncccc13)CCC2,2,i,1,-3,-17,1,/,-9,
C/C(=N\NS(=O)(=O)c1cccc([N+](=O)[O-])c1)c1cccnc1,-4,i,2,5,/,-31,4,-1,

# Going on with the list.
SMILES,eIF4H FP inh,Rce1 inhib,MT1-MMP act inh,MT1-MMP act inh RFP,UUG fidelity,PABP FP inh,HIV Env fusion,CSC inhib,others
CCOC(=O)c1csc(COc2ccc(OC)cc2)n1,4,i,1,4,/,2,-9,8,
COc1cc(-c2nnc(SC/C=C/c3ccccc3)n2N)cc(OC)c1OC,0,i,2,0,-12,-8,-11,-3,
CC1(C)CC(=O)C(=Cc2cn(-c3ccccc3)nc2-c2ccccc2)C(=O)C1,/,i,-2,-10,9,/,9,41,
COc1ccc(CCCc2nc3ccccc3[nH]2)cc1,-3,i,1,3,/,-4,-48,-14,
Nc1nnc(-c2ccco2)s1,31,i,-2,3,/,22,/,-9,
CN1CCN(c2nc3c(c(=O)[nH]c(=O)n3C)n2Cc2cccc(Br)c2)CC1,-4,i,-2,-2,-17,-1,-4,-7,
O=C(Nc1ccc(OC(F)F)cc1)c1cc[n+]([O-])cc1,-10,i,-3,2,-19,11,-18,3,
CC(=O)Nc1cccc(NC(=O)C(=O)c2cn(CC(=O)N3CCCC3)c3ccccc23)c1,/,/,3,6,13,/,-55,/,
O=C1CCCC2=C1C(c1ccccc1)NC(=S)N2 (stereo unspecified),-5,i,2,0,/,1,20,4,
COc1ccc(CNC(=O)c2cccc(N(C)C)c2)cc1,8,i,-3,0,1,1,-61,-16,
Cc1csc(=O)n1CCC(=O)OCC(=O)Nc1cccc(C#N)c1,/,i,5,4,-5,/,-155,-4,
CNC(=S)N/N=C(\C)c1ccccc1,-10,i,2,6,/,0,3,-7,
COC(=O)C1=C(C)N(C)C(=O)NC1c1ccsc1 (stereo unspecified),-2,i,0,5,/,-12,-7,-3,
COc1ccc(-c2cc(C(=O)N(C)Cc3ccccc3)no2)cc1OC,-11,i,5,6,/,8,/,18,
CCc1ccccc1NC(=O)CSc1nnc([C@@H](NC(=O)OC(C)(C)C)C(C)CC)o1 (stereo partly specified),-6,i,2,2,0,-12,1,-4,
O=S1(=O)CCN(Cc2cccc(Cl)c2)CC1,-10,i,-2,-3,-10,-2,/,-7,
CCOc1ccc(N2C(=O)/C(=C/c3cc(OC)c(OC)c(OC)c3)N(CC(=O)OC)C2=S)cc1,6,i,-8,-19,-7,1,16,19,
COc1cc(C(C[N+](=O)[O-])c2c(N)n(C)c(=O)n(C)c2=O)ccc1O (stereo unspecified),-8,i,-3,1,/,73,-12,-2,eIF4H FP inh retest=46;PABP FP inh retest=46
O=c1cc(CN2CCCc3ccccc32)nc2sccn12,94*,i,-89,8,-1,-16,-6,-2,eIF4H FP inh retest=64*;PABP FP inh retest=7
Cc1cccc(OCCCOc2cccc3cccnc23)c1C,-7,i,-3,-4,-17,-3,/,-7,

# Four entries picked at random from those above, as already listed:
SMILES,eIF4H FP inh,Rce1 inhib,MT1-MMP act inh,MT1-MMP act inh RFP,UUG fidelity,PABP FP inh,HIV Env fusion,CSC inhib,others
COC(=O)C1=C(C)N(C)C(=O)NC1c1ccsc1 (stereo unspecified),-2,i,0,5,/,-12,-7,-3,
O=S1(=O)CCN(Cc2cccc(Cl)c2)CC1,-10,i,-2,-3,-10,-2,/,-7,
CCc1ccccc1NC(=O)CSc1nnc([C@@H](NC(=O)OC(C)(C)C)C(C)CC)o1 (stereo partly specified),-6,i,2,2,0,-12,1,-4,
Cc1cccc(OCCCOc2cccc3cccnc23)c1C,-7,i,-3,-4,-17,-3,/,-7,

# Other results:
SMILES,eIF4H FP inh,Rce1 inhib,MT1-MMP act inh,MT1-MMP act inh RFP,UUG fidelity,PABP FP inh,HIV Env fusion,CSC inhib,others
NS(=O)(=O)c1ccc(NC(=O)COC(=O)COc2cccc(C(F)(F)F)c2)cc1,-10,/,5,5,2,-8,-16,-9,
CC(C)(C)C1CCC(=NOC(=O)c2ccc(F)cc2)CC1 (stereo unspecified),7,i,2,1,/,-5,2,-3,
Fc1ccc(-c2nc3c(Cl)cc(C(F)(F)F)cn3c2Cl)cc1,?,i,-4,1,-17,2,-192,7,
O=C1c2ccc3c4c(ccc(c24)C(=O)N1CCCCO)C(=O)N(CCCCO)C3=O,?,i,-18,-15,/,-6,-2,/,
NC(=O)C1CCN(C(=O)c2cc(S(=O)(=O)N3CCN(c4ccccc4)CC3)ccc2Cl)CC1,/,/,4,3,5,/,0,/,

# Compound activity: PubChem BioAssay, several laboratories
